# Compound activity: PubChem, several laboratories
# FGF22 binding: binders of recombinant human FGF22 by thermal shift. Q9HCT0. AID 651658. hit rate 1.5% among 340,000. SYPRO orange fluorescence; percent of sucrose octasulfate shift, DMSO zero. calls only at 9.99 µM;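 active = melting point raised past a set limit in the mean and every replicate; three in four hits are not shown here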
# HNF4A DNA FP: change in binding of human HNF4 alpha to DNA. HNF4a-FITC DNA binding, fluorescence polarization, 1 h. hit rate 0.3% among 360,000. activity change, % at 10 µM; in the data active = activity change above about 30%, passing the limit was not always enough;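 note: controls were the assay level and a saturating level of protein; the project sought stronger binding though the title names inhibitors; some compounds called inactive have numbers as strong as hits; positive values seem to mean higher polarization but the record does not say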
# Ecoli growth: blocks Escherichia coli growth. OD600, 23 h; stronger effect = lower value. OD600 absorbance (test concentration not listed). hit rate 0.21% among 330,000. AID 1053175;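 active = OD600 absorbance below the run mean of sample wells minus 3.6 SD, in any replicate, cut at about 0.56 in these data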;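 note: stock transfer was 300 nL into about 60 µL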
# LANA-H2B inh: blocks KSHV LANA binding to histone H2A/H2B; Q9QR71; cell-free LANA-H2A/H2B peptide, fluorescence polarization; inhibition, % (concentration not given with the values); hit rate 0.6% among 320,000; AID 2629; in the data active = inhibition mostly above about 10%, no sharp cut-off; inactive = mostly below about 6.7%;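 note: stock transfer was 7.5 nL into about 10 µL; 0% = median of vehicle wells and 100% = median of positive control wells; one replicate is shown; the record names a cut of 25% in any replicate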
# B2AR ag: activates human beta-2 adrenergic receptor causing internalization | hit rate 0.43% among 340,000 | AID 504454 | Am2.2-beta2AR cells, FAP receptor internalization, flow cytometry; reference of the scale not given here | response, % (concentration not given with the values) | P07550;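 active = response above a set limit, near 3 SD of response in nonfluorescent compounds, cut at about 42% in these data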;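 note: stock transfer was 100 nL into about 11 µL; a reference agonist was the positive control; negative values mostly stem from fluorescent compounds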
# Target sequence (P07550 whole entry, looked up): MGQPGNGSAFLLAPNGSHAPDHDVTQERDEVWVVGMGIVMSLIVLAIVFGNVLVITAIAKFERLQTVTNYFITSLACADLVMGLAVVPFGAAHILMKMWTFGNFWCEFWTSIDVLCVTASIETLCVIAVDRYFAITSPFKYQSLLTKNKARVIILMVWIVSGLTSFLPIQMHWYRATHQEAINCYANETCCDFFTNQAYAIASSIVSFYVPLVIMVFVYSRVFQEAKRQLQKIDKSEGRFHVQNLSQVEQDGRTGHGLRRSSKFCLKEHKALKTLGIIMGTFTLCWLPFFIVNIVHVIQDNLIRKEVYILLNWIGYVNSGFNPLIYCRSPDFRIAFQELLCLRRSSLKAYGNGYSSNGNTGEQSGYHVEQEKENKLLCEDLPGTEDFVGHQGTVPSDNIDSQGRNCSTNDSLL
# ALR H2O2 inh: blocks human ALR sulfhydryl oxidase activity | AID 485317 | hit rate 3.8% among 290,000 | purified ALR, DTT oxidation, H2O2 HRP-luminol luminescence | inhibition, % (concentration not given with the values);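 active = mean and each replicate at 75% or more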;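 note: stock transfer was 7.5 nL into about 7.5 µL; 0% = neutral wells and 100% = wells with inactivated enzyme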
# Target sequence (P55789 whole entry, looked up): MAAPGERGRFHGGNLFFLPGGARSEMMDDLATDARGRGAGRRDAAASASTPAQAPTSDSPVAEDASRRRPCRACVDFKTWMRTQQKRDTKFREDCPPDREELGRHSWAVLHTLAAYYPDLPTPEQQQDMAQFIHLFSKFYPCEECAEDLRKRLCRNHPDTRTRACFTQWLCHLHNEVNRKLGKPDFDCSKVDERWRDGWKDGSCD
# UCH37 DUB inh: human UCH37 deubiquitinating enzyme inhibition; Q9Y5K5; purified proteasome/UCH37, Ub-AMC cleavage fluorescence; inhibition, % (test concentration not listed); hit rate 0.33% among 330,000; AID 588478;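 active = mean of two replicates above 20%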;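 note: 0% = compound-free wells with enzyme and 100% = wells lacking proteasome; stock transfer was 100 nL into about 20 µL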
# Target sequence (Q9Y5K5 whole entry, looked up): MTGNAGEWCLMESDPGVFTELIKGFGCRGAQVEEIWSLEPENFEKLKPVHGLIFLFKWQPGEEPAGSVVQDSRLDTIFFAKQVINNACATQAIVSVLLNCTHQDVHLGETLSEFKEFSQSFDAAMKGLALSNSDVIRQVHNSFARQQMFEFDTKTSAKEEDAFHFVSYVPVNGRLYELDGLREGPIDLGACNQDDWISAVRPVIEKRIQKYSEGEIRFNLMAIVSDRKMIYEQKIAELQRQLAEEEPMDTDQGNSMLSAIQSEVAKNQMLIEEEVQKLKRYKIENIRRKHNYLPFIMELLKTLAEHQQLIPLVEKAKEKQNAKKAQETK
#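 Material: Human UCH37 enzyme supplied as purified proteasome complex | Schedule: 30 min compound-proteasome preincubation then 25 min substrate reaction, room temperature | Detection: AMC fluorescence from Ub-AMC cleavage, excitation 355 nm, emission 460 nm | Benchmarks: Wells without proteasome as full block, compound-free enzyme plus substrate as uninhibited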
# The depositor's hits bear a star; i = inactive; nt = no result given; + = active, no number. Not all compounds are listed. The share of hits here may be higher or lower than overall.
SMILES,FGF22 binding,HNF4A DNA FP,Ecoli growth,LANA-H2B inh,B2AR ag,ALR H2O2 inh,UCH37 DUB inh
COc1ccc(C(=O)N/C(=C/c2cccc3ccccc23)C(=O)NCCc2c[nH]c3ccccc23)cc1OC,i,2.8,0.72,1.6,1,-1,-0.9
COc1ccc(C(=O)NC2CCN(C(=S)NCCc3ccccc3)CC2)cc1,i,1.0,0.69,-0.1,-12,-2,0.8
Cc1nn(C)c(C(=O)NC(=S)Nc2ccccc2O)c1Cl,i,-2.7,0.68,-0.7,16,27,1.0
CCN(CC)S(=O)(=O)c1cccc(C(=O)N/N=C2\CC(=O)CC(C)(C)C2)c1,i,3.0,nt,-1.2,7,59,nt
CC#CCN1c2ccccc2[C@]23C[C@@H](C(=O)OC)N(C(=O)NC(C)(C)C)C2=NC(C(=O)OC)=C(C(=O)OC)[C@H]13,i,-1.5,nt,-3.1,20,0,5.2
O=C(CCC1CCCCC1)NCCN1C2=NC[C@@H](Cc3ccccc3)N2C[C@H]1Cc1ccc(O)cc1,i,0.3,nt,-1.8,5,-10,0.5
O=C(CSCc1ccc([N+](=O)[O-])cc1)Nc1cccc(C(=O)Nc2ccccc2C(=O)O)c1,i,0.7,0.71,-5.5,-2,99*,4.9
O=C(CSc1nnc(COc2ccc(Cl)cc2)n1Cc1ccco1)N1CCNC1=O,i,20,0.7,nt,10,nt,2.0
O=C1CCCN1CCCNc1ncccc1[N+](=O)[O-],i,-2.5,0.68,-0.1,1,-1,4.4
O=C(CO/N=C/c1ccccc1OC(F)F)NC1CCCCC1,i,0.8,nt,-3.2,-5,-9,nt
CC(C)n1ncc2c(C(=O)Nc3cccc(C#N)c3)cc(C3CC3)nc21,i,1.0,0.68,-2.9,19,0,-4.6
CC(C)(CNCc1ccccc1)NS(=O)(=O)c1ccc(Cl)cc1,+,1.0,0.64,5.0,-12,-4,1.1
Fc1ccccc1NC(=S)N(CCCN1CCOCC1)Cc1cccnc1,i,-1.9,0.67,2.2,-6,nt,1.2
Cc1onc(-c2ccccc2Cl)c1C(N)=O,nt,-0.3,0.72,1.8,1,-31,0.3
Cc1ccc2nc(SCC(=O)Nc3cccc(S(=O)(=O)NC4=NCCCCC4)c3)[nH]c2c1,i,-0.1,0.71,-1.1,4,-6,3.7
Cc1ccc(NC(=O)CNC2CCCCC2)cc1Cl,i,-1.4,0.64,-10,-8,-12,4.6
CCCCCc1cc(=O)oc2c(C(CCN3CCCC(C)C3)c3ccc4c(c3)OCO4)c(OC)cc(OC)c12 (centres undefined),i,2.4,nt,1.9,19,-11,nt
Nc1nc(SCC(=O)Nc2ccc(Cl)c(S(=O)(=O)N3CCOCC3)c2)n[nH]1,i,-1.6,0.67,-3.8,-5,0,-0.3
COc1ccc(C(=O)OCCN2C(=O)c3ccccc3C2=O)cc1,nt,1.5,0.66,-6.3,-5,0,7.6
CC(=O)c1cccc(NS(=O)(=O)c2ccc(-c3cc(C)no3)s2)c1,i,5.0,0.7,3.7,-1,-3,6.1
Cc1cccc(C)c1NCc1n[nH]c(=S)n1-c1ccccc1,i,3.0,0.68,1.5,1,19,-0.9
COc1ccc(C=C2C=C(C(C)(C)C)C(=O)C(C(C)(C)C)=C2)cc1OC,i,-2.9,nt,0.5,76*,nt,nt
Cc1ccc(/C(=N/Nc2ncnc3ccccc23)C(=O)O)cc1,i,-0.1,nt,3.8,2,4,nt
COc1ccc(C(C(=O)NCC2CCCO2)N(C(=O)CNC(=O)c2ccco2)c2ccccc2)cc1OC (centres undefined),i,2.8,0.69,6.0,-8,-6,3.6
COc1cccc(C(=O)NC2CC3CCCC(C2)N3S(=O)(=O)c2ccccc2)c1 (centres undefined),i,2.3,0.69,1.4,12,12,3.2

# Carrying on:
SMILES,FGF22 binding,HNF4A DNA FP,Ecoli growth,LANA-H2B inh,B2AR ag,ALR H2O2 inh,UCH37 DUB inh
O=C(Oc1ccccc1N1CCOCC1)c1ccccc1,i,-2.6,0.69,-1.8,-6,-3,5.4
CNC[C@@H](Cc1ccccc1)NC[C@@H](CC1CCCCC1)NCCCc1ccccc1,i,-2.8,nt,7.1,26,-14,2.6
Cn1cccc1/C=N/NC(=O)c1ccc[n+]([O-])c1,i,-2.7,nt,8.6,1,-2,nt
O=[N+]([O-])c1ccccc1-c1cc(-c2ccccc2O)n[nH]1,nt,1.0,0.71,3.4,5,73,2.6
CCCNC(=O)c1cc(S(=O)(=O)N2CCCCC2)c[nH]1,nt,-0.2,0.67,0.5,-9,-3,6.2
COc1cc(CN2CCC(N3CCC(C(=O)N4CCCC4)CC3)CC2)cc2c1OCO2,i,1.9,0.72,-3.3,1,nt,2.6
CN1CCN(C(=O)CCc2nc3ccccc3c(=O)[nH]2)CC1,nt,-0.3,0.73,2.2,1,5,1.6
CCCCCNCC(=O)Nc1cccc(C(=O)Nc2cccc(C(F)(F)F)c2)c1,i,0.5,nt,5.4,5,-115,nt
CC(C)OCCCn1c(-c2ccc(Br)cc2)c[nH]c1=S,i,-1.7,0.65,-0.6,-1,nt,-0.4
COc1cc(OC)cc(C(=O)N[C@H](C(=O)OCC(=O)NC(=O)NC(C)(C)C)C(C)C)c1,i,-2.0,0.7,3.1,-7,0,1.1
O=C(CSc1nc2ccccc2nc1N1CCCCC1)Nc1ccc(F)cc1,i,-3.9,0.71,2.0,-7,4,-0.5
COc1ccc(CCN(C)C(=O)C2CCN(C(=O)Nc3ccccc3)CC2)cc1OC,i,-3.3,0.65,3.2,-8,-1,3.6
O=C(NNc1c(Cl)cccc1Cl)c1ccno1,i,5.8,0.64,0.1,1,51,6.6
OC[C@@H]1[C@@H](c2ccc(Cl)cc2)C(c2ccc(F)cc2)=NN1c1ccccc1,i,2.6,0.72,nt,-3,nt,i
COC(C[C@@H]1O[C@@H]1C(=O)[C@H](C)OCc1ccccc1)OC,i,0.7,nt,-3.7,1,nt,1.0
CSCCC(NC(=O)c1ccccc1Br)C(=O)N1CCN(C/C=C/c2ccccc2)CC1 (centres undefined),i,0.6,0.7,nt,-4,nt,1.3
O=C(CN1CCNCC1)NCCSc1ccc(Cl)cc1,i,1.3,0.7,3.3,3,0,0.7
Cc1cc(C)c2sc(N(CCN(C)C)C(=O)c3cc(Cl)sc3Cl)nc2c1,i,1.8,0.64,-0.3,-3,-2,4.8
C/C=C/C1=CC(=O)C[C@H](c2ccc3c(c2)OCO3)C1,i,-3.5,nt,-2.9,6,-13,1.7
COc1ccc(COC(=O)CCS(=O)(=O)c2ccc(C)cc2)cc1,i,-3.3,0.6,5.0,-1,5,1.2
c1ccc(Nc2nc(N3CCOCC3)nc(N3CCOCC3)n2)cc1,nt,-3.2,0.77,1.1,8,-4,2.6
O=C(Nc1nc2ccccc2[nH]1)c1ccc(S(=O)(=O)N2CCOCC2)cc1,nt,0.5,0.68,-4.5,-7,-9,3.5
Cc1cccc(C(=O)NC(=S)Nc2c(C)n(C)n(-c3ccccc3)c2=O)c1,i,2.5,nt,2.4,4,nt,nt
COc1cc(C)nc(Oc2ccc(=O)n(C)n2)n1,nt,2.0,0.75,nt,0,nt,4.3
COc1ccc(CNC(=O)CCCn2ncn3c(cc4occc43)c2=O)cc1,i,2.9,0.74,-3.5,-12,-7,-1.2

# (listing goes on)
SMILES,FGF22 binding,HNF4A DNA FP,Ecoli growth,LANA-H2B inh,B2AR ag,ALR H2O2 inh,UCH37 DUB inh
COc1ccc(NC(=S)N(Cc2ccc(N(C)C)cc2)Cc2ccco2)cc1,nt,-1.8,0.68,4.9,6,19,1.2
CC(=O)NS(=O)(=O)c1ccc(NC(=O)/C=C/c2ccc(C)o2)cc1,i,-4.0,0.68,-1.0,6,nt,4.9
O=C(COc1cccc(Cl)c1)Nc1ccc2c(c1)CCC2,i,1.7,0.7,1.2,-2,-10,-1.1
O=C(Cc1ccccc1F)Nc1ccc2c(c1)CCC2,i,3.1,0.7,-1.8,7,-7,-0.1
COc1ccc(NC(=O)CN2CCc3ccccc3C2)cc1OC,i,4.0,0.72,-1.6,4,-23,1.1
O=C(Nc1ccc(N2CCN(C(=O)c3ccccc3)CC2)cc1)c1ccc2c(c1)OCO2,nt,3.7,0.74,3.6,6,11,-1.6
Cc1cc(C)c(C)c(OCCCOc2cccc3cccnc23)c1,nt,1.6,0.7,-1.4,-3,22,-2.7
Cc1nc(NC(=O)C(C)Oc2cccc(Cl)c2)sc1C(=O)N(C)C (centres undefined),nt,0.3,0.65,1.5,-7,-1,1.4
CCOC(=O)C1=C(C)N(C)C(=S)NC1c1ccc(Cl)cc1 (centres undefined),i,-3.5,0.7,1.8,-20,-9,2.2
Cc1ccc(C2C3=C(CC(C)(C)CC3=O)NC3=C2C(=O)c2ccccc23)cc1 (centres undefined),nt,0.3,0.63,-0.3,-9,-12,2.4
Cc1cc(Cl)ccc1NC(=S)NCc1ccco1,i,-3.3,0.69,2.2,-3,0,-1.5
O=c1[nH]nc(Cc2ccc3ccccc3n2)c2ccccc12,nt,0.7,0.7,5.3,-5,31,1.0
CCOC(=O)C1=C(C)Nc2ccccc2N=C1N,i,-4.4,0.75,-3.6,1,-23,2.9
O=C(c1c(O)c2ccccc2oc1=O)C1CCC1,nt,1.1,0.66,-6.3,6,-1,2.4
O=c1c2c3c(sc2n2cnnc2n1-c1ccccc1)N(Cc1ccccc1)CCC3,nt,nt,0.67,-0.7,nt,-17,-24
C[C@H](CO)N1C[C@H](C)[C@H](CN(C)Cc2ccccc2)Oc2c(NC(=O)Nc3ccc(F)cc3)cccc2C1=O,i,0.2,nt,4.0,-6,-1,5.2
O=C(CCC(=O)NNC(=O)COc1ccc(Br)cc1)NCc1ccccc1,i,3.0,0.7,-5.6,8,-3,0.4
CCN(CC)c1cc2nc(C)n(Cc3ccccc3)c(=O)c2cc1NC(=O)C1CC1,nt,17,0.69,-1.1,6,-4,nt
CN(C)/C=C/c1onc(-c2c(F)cccc2Cl)c1C#N,i,-1.1,nt,0.5,-6,7,3.7
O=C1CC(SC(=NCc2ccc3c(c2)OCO3)Nc2ccccc2)C(=O)N1 (centres undefined),nt,0.0,0.69,-3.0,2,-2,5.0
CCN(CC(=O)Nc1c(F)cccc1F)C(=O)CCc1nc2ccccc2c(=O)[nH]1,i,0.7,0.68,-2.2,-3,-5,0.6
CCc1nc(SCC(=O)N2CCCC2)c2c(=O)n(C)c(=O)n(C)c2n1,i,-3.5,0.69,-0.1,-15,-2,2.6
Fc1ccc(Nc2nnns2)cc1,i,-0.2,0.63,-1.2,-8,nt,3.3
CSCC[C@H](NC(=O)N1CCn2c1nc1ccccc12)C(=O)NCc1ccco1,i,3.4,0.66,-3.3,-8,96*,-3.3
O=C(CSc1ccc(Cl)cc1)NNC(=O)c1ccncc1,i,-1.3,0.69,nt,-6,nt,4.1
Cc1nc2sc(C(c3cccs3)N3CCN(c4ccccc4)CC3)c(O)n2n1 (centres undefined),i,0.2,0.76,3.0,-2,26,4.5
O=C1CSC(=S)N1/N=C/c1cc(Br)c(O)c(Br)c1,nt,158,nt,-29,-57,34,nt
N#Cc1ccc(CN2CCN(C(=O)CNS(=O)(=O)c3ccc4c(c3)OCCCO4)CC2)cc1,i,-1.4,0.66,-1.7,2,-10,2.8
CC(=O)Nc1ccc(NC(=O)c2cccc(S(=O)(=O)N(C)C3CCCCC3)c2)cc1,i,0.6,0.66,-2.5,6,nt,1.0
Cc1ccc(S(=O)(=O)N2CCOCC2)cc1C(=O)OC1CCOC1=O (centres undefined),i,-4.8,0.69,nt,-1,nt,2.2

# Whole records, quoted from the list.
# Listed for `C[C@H](CO)N1C[C@H](C)[C@H](CN(C)Cc2ccccc2)Oc2c(NC(=O)Nc3ccc(F)cc3)cccc2C1=O` : FGF22 binding: i; HNF4A DNA FP: 0.2; Ecoli growth: nt; LANA-H2B inh: 4.0; B2AR ag: -6; ALR H2O2 inh: -1; UCH37 DUB inh: 5.2
# Listed for `CC(=O)NS(=O)(=O)c1ccc(NC(=O)/C=C/c2ccc(C)o2)cc1` : FGF22 binding: i; HNF4A DNA FP: -4.0; Ecoli growth: 0.68; LANA-H2B inh: -1.0; B2AR ag: 6; ALR H2O2 inh: nt; UCH37 DUB inh: 4.9
